# DUX4 inh = blocks DUX4-driven transcriptional activation | 293T-iDUX4 ZSCAN4-Gaussia luciferase reporter, 24 h; active compounds read low | activity change, negative = inhibition, % (concentration not given with the values) | 0.8% of 37,000 active;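 active = -10% or lower and over 25 points stronger than a control reporter; inconclusive = -10% or lower with a smaller gap; inactive = above -10%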;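 also: 0% = median of neutral control wells and -100% = median of positive control wells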
# DUX4 inh difference = further read-out of DUX4 inh, marked with its call; Gaussia minus Italica difference, %; measured here: selective DUX4 reporter inhibition;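 worked out from the two reporters; negative = selective loss of the DUX4 reporter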
# DUX4 inh control = also measured in DUX4 inh; calls as there; activity change, negative = inhibition, %; measured here: Italica tet-on control reporter;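 0 = neutral control and -100 = positive control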
# Starred values were filed as active, the others as inactive; ? = inconclusive; · = not tested or not shown; & = joins results of further samples.
SMILES,DUX4 inh,DUX4 inh difference,DUX4 inh control
C[C@H](CO)N1C[C@H](C)[C@@H](CN(C)C(=O)Nc2ccc3c(c2)OCO3)Oc2cc(C#Cc3cccnc3)ccc2S1(=O)=O,-2,0,-1.9
COc1ccccc1NC(=O)N1CC[C@H]2[C@@H]1c1cc(C#Cc3ccc(F)cc3)ccc1N(C)[C@H]2CO,11,12,-0.5
CN1c2ccc(-c3ccc(F)cc3)cc2[C@@H]2[C@@H](CCN2S(=O)(=O)c2ccc(F)cc2)[C@@H]1CO,0,0,0.2
C[C@H]1CCCCO[C@@H](CN(C)C(=O)C2CCCCC2)[C@@H](C)CN([C@@H](C)CO)C(=O)c2cc(NS(=O)(=O)c3ccccc3)ccc2O1,2,2,0.3
COc1cccc(NC(=O)N(C)C[C@H]2Oc3cc(C#Cc4ccncc4)ccc3S(=O)(=O)N([C@@H](C)CO)C[C@@H]2C)c1,3,4,-1.3
CCCNC(=O)N1C[C@H](O)COC[C@H]2O[C@@H](CC(=O)N[C@H]3CCN(Cc4ccccc4)C3)CC[C@@H]21,6,7,-1.3
O=C(CN1CCOCC1)NCC[C@H]1CC[C@@H](NS(=O)(=O)c2ccc(Cl)cc2)[C@@H](CO)O1,-1,-3,1.7
O=C(Nc1ccc(F)cc1)N1C[C@H]2[C@@H](c3ccccc31)[C@@H](CO)N2Cc1ccccc1Cl,?,·,·
Cc1cccc(S(=O)(=O)N2C[C@@H]3N[C@H](C2)C3c2ccc(-c3cccnc3)cc2)c1 (stereo partly specified),?,·,·
CCCNC(=O)N1C[C@@H](O)COC[C@H]2O[C@@H](CC(=O)N3CCC(Cc4ccccc4)CC3)CC[C@@H]21,-1,3,-4.2
COc1ccc2c3c(n(C)c2c1)[C@@H](CO)N(Cc1ccc(F)cc1)CC31CCN(CC2CC2)CC1,?,·,·
CN(C)CC(=O)N1[C@H](CO)[C@H](c2ccc(-c3cccc(C(=O)N(C)C)c3)cc2)[C@@H]1C#N,-5,-1,-3.9
O=C(c1ccccc1)N1CC2(C1)[C@@H](c1ccccc1)[C@@H](CO)N2C(=O)CC1CC1,3,5,-2.0
C/C=C/c1ccc([C@H]2[C@@H](CNC(=O)CC)N(C(=O)COC)[C@H]2CO)cc1,-1,-3,1.2
CN(C)Cc1cn(CC[C@@H]2CC[C@@H](NS(=O)(=O)c3ccc(-c4ccccc4)cc3)[C@H](CO)O2)nn1,6,7,-1.4
CC(=O)N1[C@@H](CO)[C@H](c2ccccc2)[C@@H]1CN(C)S(=O)(=O)c1ccccc1,5,1,3.5
COc1ccc(NC(=O)Nc2ccc3c(c2)[C@H]2C[C@@H](CC(=O)N[C@@H](C)c4ccccc4)O[C@@H](CO)[C@H]2O3)cc1,1,-4,5.1
C[C@@H]1CN([C@@H](C)CO)C(=O)c2cc(NC(=O)c3ccccc3)ccc2O[C@@H](C)CCCCO[C@@H]1CN(C)S(=O)(=O)c1cccs1,-1,-2,1.4
C[C@@H]1CCCCO[C@H](CN(C)C(=O)Cc2ccccc2)[C@H](C)CN([C@@H](C)CO)C(=O)c2cc(N(C)C)ccc2O1,1,1,-0.7
Cc1noc(C)c1NC(=O)N(C)C[C@H]1OCCCC[C@@H](C)Oc2ccc(NC(=O)c3ccncc3)cc2C(=O)N([C@@H](C)CO)C[C@H]1C,1,-6,7.4
O=C(CN1CCOCC1)N1C[C@@H]2N[C@H](C1)C2c1ccc(-c2ccccc2)cc1 (stereo partly specified),11&2,-7&-1,18&3.0
OC[C@@H]1[C@@H](c2ccccc2)C2(CN(CC3CC3)C2)N1Cc1ccc(F)cc1,?,·,·
C/C=C/c1ccc([C@@H]2[C@H](CO)N(C(=O)CC)C23CN(CCC(F)(F)F)C3)cc1,-6,-3,-3.3
C[C@@H]1CN([C@H](C)CO)C(=O)c2cc(C#CC3(O)CCCC3)cnc2O[C@H]1CN(C)Cc1ccccc1,3,-3,5.3
C[C@@H](NC(=O)C[C@H]1C=C[C@@H](NC(=O)CN2CCOCC2)[C@@H](CO)O1)c1ccccc1,4,2,2.1

# Another view of 7 compounds above.
Structure	DUX4 inh	DUX4 inh difference	DUX4 inh control
O=C(CN1CCOCC1)NCC[C@H]1CC[C@@H](NS(=O)(=O)c2ccc(Cl)cc2)[C@@H](CO)O1	-1	-3	1.7
C[C@H](CO)N1C[C@H](C)[C@@H](CN(C)C(=O)Nc2ccc3c(c2)OCO3)Oc2cc(C#Cc3cccnc3)ccc2S1(=O)=O	-2	0	-1.9
Cc1noc(C)c1NC(=O)N(C)C[C@H]1OCCCC[C@@H](C)Oc2ccc(NC(=O)c3ccncc3)cc2C(=O)N([C@@H](C)CO)C[C@H]1C	1	-6	7.4
C[C@@H]1CN([C@@H](C)CO)C(=O)c2cc(NC(=O)c3ccccc3)ccc2O[C@@H](C)CCCCO[C@@H]1CN(C)S(=O)(=O)c1cccs1	-1	-2	1.4
CN1c2ccc(-c3ccc(F)cc3)cc2[C@@H]2[C@@H](CCN2S(=O)(=O)c2ccc(F)cc2)[C@@H]1CO	0	0	0.2
CC(=O)N1[C@@H](CO)[C@H](c2ccccc2)[C@@H]1CN(C)S(=O)(=O)c1ccccc1	5	1	3.5
C[C@@H]1CN([C@H](C)CO)C(=O)c2cc(C#CC3(O)CCCC3)cnc2O[C@H]1CN(C)Cc1ccccc1	3	-3	5.3

# Remaining list, next part:
SMILES,DUX4 inh,DUX4 inh difference,DUX4 inh control
O=C(C[C@H]1C[C@H]2c3cc(NC(=O)c4ccc5c(c4)OCO5)ccc3O[C@H]2[C@H](CO)O1)NCc1cccnc1,-5,-1,-4.4
CO[C@@H]1CN(C)C(=O)c2cc(NC(=O)C3CC3)ccc2OC[C@H](C)N(C(=O)c2ccncc2)C[C@H]1C,3,4,-0.9
CCC(=O)N1CCCCN2[C@H](CO)[C@H](c3ccc(-c4cccnc4)cc3)[C@H]2C1,14,0,14
C[C@H](CO)N1C[C@H](C)[C@H](CN(C)C(=O)Nc2ccc(F)cc2)OCc2ccccc2-c2ccccc2C1=O,8,10,-2.3
C[C@@H]1CN([C@@H](C)CO)C(=O)c2cc(NC(=O)NC3CCCCC3)ccc2O[C@@H]1CN(C)C(=O)Nc1ccc2c(c1)OCO2,5,3,2.0
CC(C)NC(=O)N(C)C[C@@H]1Oc2cc(C#Cc3ccccn3)ccc2S(=O)(=O)N([C@@H](C)CO)C[C@H]1C,2,-2,3.9
CCNC(=O)[C@@H]1[C@@H](CO)[C@@H]2Cn3c(ccc(-c4cccc(F)c4)c3=O)[C@@H]2N1Cc1cc(F)ccc1F,-6,3,-9.5
CCNC(=O)[C@H]1[C@H](CO)[C@H]2Cn3c(ccc(-c4ccccc4)c3=O)[C@@H]1N2Cc1ccccc1,1,2,-1.1
COc1ccccc1NC(=O)N1[C@@H]2CNC[C@H]1C2c1ccc(-c2cccc(C#N)c2)cc1 (stereo partly specified),1&12,8&18,-7.0&-6.3
COc1ccccc1-c1ccc2c(c1)O[C@@H](CN(C)CC1CCOCC1)[C@@H](C)CN([C@@H](C)CO)S2(=O)=O,-2,1,-3.0
COc1ccc(S(=O)(=O)N2C[C@@H](O)COC[C@H]3O[C@H](CC(=O)N[C@H]4CCN(Cc5ccccc5)C4)CC[C@@H]32)cc1,-4,-5,1.3
COc1cccc(S(=O)(=O)Nc2ccc3c(c2)[C@H]2C[C@H](CC(=O)N[C@@H](C)c4ccccc4)O[C@@H](CO)[C@H]2O3)c1,-2,-4,1.6
Cc1noc(C)c1NC(=O)N(C)C[C@@H]1Oc2c(NC(=O)C3CCOCC3)cccc2C(=O)N([C@@H](C)CO)C[C@@H]1C,5,1,4.3
CCCNC(=O)N1C[C@H]2[C@@H](c3ccccc31)[C@H](CO)N2C(=O)Cc1ccccn1,1,5,-3.6
C[C@@H]1CN([C@H](C)CO)C(=O)CCCn2nncc2CO[C@@H]1CN(C)Cc1ccc(C(=O)O)cc1,-2,-2,0.0
CCNC(=O)C[C@@H]1CC[C@@H]2[C@H](COC[C@H](O)CN2C(=O)c2cccnc2)O1,11,7,3.7
O=C(Nc1cc(F)ccc1F)N1CCCCN2[C@@H](CO)[C@@H](c3ccc(C4=CCCCC4)cc3)[C@@H]2C1,?,·,·
CCC(=O)N1[C@@H]2Cn3c(cccc3=O)[C@H]1[C@@H](C(=O)NCc1ccc(F)cc1)[C@@H]2CO,0,-2,2.4
COc1ccc(C#Cc2ccc([C@H]3[C@H](CO)N4CCCCN(C)C[C@@H]34)cc2)cc1,-26*,-27*,0.9*
COCC(=O)N1CC2(C1)[C@H](c1ccc(-c3ccc(C)cc3)cc1)[C@@H](CO)N2C(C)=O,3,-5,8.0
CCCNC(=O)[C@@H]1[C@@H](CO)[C@@H]2Cn3c(ccc(-c4cccc(OC)c4)c3=O)[C@H]1N2C(=O)NCCC,-1,-5,3.6
CO[C@H]1CN(C)C(=O)c2ccc(NC(=O)C3CCC3)cc2OC[C@H](C)NC[C@H]1C,5,-2,6.8
Cc1ccccc1S(=O)(=O)N(C)C[C@@H]1OCc2cn(nn2)CCCC(=O)N([C@H](C)CO)C[C@H]1C,-2,-4,1.8
C[C@@H]1CN([C@H](C)CO)C(=O)Cc2cc(NC(=O)NC3CCCCC3)ccc2O[C@@H]1CN(C)Cc1ccc(Oc2ccccc2)cc1,-3,1,-3.4
CCCNC(=O)C[C@@H]1CC[C@@H]2[C@@H](COc3ccc(NC(=O)c4cccs4)cc3C(=O)N2C)O1,2,1,1.0
# (next part)
SMILES,DUX4 inh,DUX4 inh difference,DUX4 inh control
CO[C@H]1CN(C)C(=O)c2ccc(NC(=O)NC(C)C)cc2OC[C@H](C)N(CC2CC2)C[C@H]1C,-2,0,-1.4
CNC[C@@H]1Oc2ccc(N(C)C)cc2C(=O)N([C@@H](C)CO)C[C@@H]1C,0,-5,5.6
C[C@H](O)C#Cc1ccc([C@H]2[C@@H](CO)N3CCCCN(C(=O)Nc4ccccc4)C[C@H]23)cc1,5,5,0.3
COc1ccc2c3c(n(C)c2c1)[C@H](CO)N(Cc1ccccc1OC)CC31CCN(C(=O)C2CC2)CC1,-7,-6,-0.2
O=C(Nc1cc(F)ccc1F)N[C@@H]1CC[C@H](CC(=O)N2CCc3ccccc3C2)O[C@H]1CO,?,·,·
CC(C)NC(=O)N1[C@H](CO)[C@H]2c3ccccc3N(C(=O)Nc3ccc(Cl)cc3)C[C@H]21,4,2,2.2
CN(C)C(=O)C[C@@H]1C[C@@H]2c3cc(NC(=O)NC4CCCC4)ccc3O[C@@H]2[C@H](CO)O1,0,-3,2.5
COc1ccc2c3c(n(C)c2c1)[C@@H](CO)NCC31CN(CC2CCOCC2)C1,-1,-11,10
O=C(Nc1ccccc1F)N1C[C@@H]2N[C@H](C1)C2c1ccc(-c2ccccc2)cc1 (stereo partly specified),?,·,·
CN1C[C@@H]2[C@H](c3ccccc31)[C@@H](CO)N2C(=O)C1CCCCC1,-3,3,-5.6
C[C@@H](NC(=O)C[C@@H]1C=C[C@@H](NC(=O)c2cccnc2)[C@@H](CO)O1)c1ccccc1,6,4,2.0
N#C[C@@H]1[C@@H](c2ccc(-c3cncnc3)cc2)[C@H](CO)N1C(=O)Cc1ccccc1,1,-1,1.9
CC=Cc1ccc2n(c1=O)C[C@H]1[C@H](CO)[C@@H](C(=O)NCC)N(CC3CCOCC3)[C@@H]21 (mixture of isomers),-1,0,-1.8
O=C(c1cccc(F)c1)N1CC[C@@H]2[C@@H](CO)Nc3ccc(-c4cccc(F)c4)cc3[C@@H]21,?,·,·
CN1C(=O)c2cc(NC(=O)c3cnccn3)ccc2OC[C@H]2O[C@H](CC(=O)NCC3CCCCC3)CC[C@H]21,-3,-3,-0.7
O=C(C[C@H]1CC[C@H]2[C@@H](COC[C@@H](O)CN2C(=O)Nc2cccc(Cl)c2)O1)NCC1CCCCC1,15,13,2.4
C/C=C/c1ccc([C@@H]2[C@@H](CN(C)C(=O)CC)N(C(=O)C3CC3)[C@H]2CO)cc1,-7,-6,-0.9
O=C(CN1CCOCC1)N1C[C@@H]2N[C@H](C1)C2c1ccc(-c2ccncc2)cc1 (stereo partly specified),15,-5,20
N#C[C@H]1[C@H](c2ccc(C#CC3CC3)cc2)[C@H](CO)N1C(=O)Cc1ccccn1,3,-3,5.9
O=C(CC1CC1)N1[C@H](CO)[C@H]2c3ccccc3N(S(=O)(=O)c3ccccc3F)C[C@H]21,-1,3,-3.6
Cc1ccc(CN2CC(=O)N3[C@H](C2)[C@H](c2ccc(-c4ccccc4F)cc2)[C@@H]3CO)cc1,2,-11,12
CCCC#Cc1cnc2c(c1)C(=O)N([C@H](C)CO)C[C@H](C)[C@H](CN(C)Cc1ccccc1F)O2,0,3,-3.2
CN1CCN(C(=O)[C@@H]2[C@@H](CO)[C@@H]3Cn4c(ccc(C5=CCCCC5)c4=O)[C@H]2N3S(C)(=O)=O)CC1,3,5,-2.3
O=C(c1ccccc1)N1CC(=O)N2[C@H](CO)[C@H](c3ccc(C4=CCCC4)cc3)[C@@H]2C1,6,3,3.7
Cc1ccc(S(=O)(=O)Nc2ccc3c(c2)C(=O)N([C@@H](C)CO)C[C@@H](C)[C@H](CN(C)C(=O)NC2CCCCC2)OCCCC[C@@H](C)O3)cc1,3,4,-0.4
CCN1[C@H](C(=O)Nc2ccccc2)[C@@H](CO)[C@@H]2Cn3c(ccc(-c4ccncc4)c3=O)[C@@H]21,-3,0,-3.6
C/C=C/c1ccccc1[C@H]1[C@@H](C#N)N(C(=O)c2cccnc2)[C@@H]1CO,9,2,6.9

# 2 compounds from above, showing only DUX4 inh.
SMILES,DUX4 inh
O=C(C[C@H]1CC[C@H]2[C@@H](COC[C@@H](O)CN2C(=O)Nc2cccc(Cl)c2)O1)NCC1CCCCC1,15
Cc1ccc(S(=O)(=O)Nc2ccc3c(c2)C(=O)N([C@@H](C)CO)C[C@@H](C)[C@H](CN(C)C(=O)NC2CCCCC2)OCCCC[C@@H](C)O3)cc1,3

# These rows are one share of the data; count on the stated rates, not on these rows.
